Screens from PubChem BioAssay.
Vaccinia inh = Vaccinia orthopox stage-specific inhibition | Vaccinia-infected cells, mCherry/Venus stage reporter fluorescence; hits give low values; some inactives read as strong as hits | activity change (mCherry), % (test concentration not listed) | 89,000 compounds, 0.01% hits;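 active = mCherry past -33% and 40 or more points under the early reporter, replicates agreeing; inconclusive = past -33% without that gap or agreement; tested in A549 cells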;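 also: scaled between vehicle wells and reference inhibitor wells; 23 nL library stock went into each well; one replicate is shown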
Vaccinia inh Venus = also measured in Vaccinia inh; calls as there; activity change (Venus), %; measured here: Venus reporter, other viral stage;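 negative = less Venus signal; first of two replicates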
* marks the source's active call; other numbers are inactive results; u = inconclusive; x = not tested or not shown. These rows are one share of the data. The share of hits here may be higher or lower than overall.

SMILES | Vaccinia inh | Vaccinia inh Venus
C[C@H]1CN([C@@H](C)CO)C(=O)c2cccc(NC(=O)C3CCCCC3)c2O[C@H]1CN(C)S(=O)(=O)c1ccc(F)cc1 | -10 | -5
COc1ccc(CN(C)C[C@H]2OCCCC[C@@H](C)Oc3ccc(NC(=O)Nc4ccc(C(F)(F)F)cc4)cc3C(=O)N([C@@H](C)CO)C[C@H]2C)cc1 | u | x
COc1ccc(CN(C)C[C@@H]2Oc3ccc(NC(=O)NC4CCCCC4)cc3C(=O)N([C@@H](C)CO)C[C@@H]2C)cc1 | -7 | -11
C[C@@H]1CN([C@@H](C)CO)C(=O)c2c(c3ccccc3n2C)-c2ccccc2CO[C@H]1CN(C)Cc1ccc2c(c1)OCO2 | u | x
C[C@H]1CN([C@@H](C)CO)C(=O)c2cccc(NC(=O)c3nc4ccccc4s3)c2O[C@H]1CN(C)S(=O)(=O)c1ccccc1 | -14 | -1
CCC(=O)N1CC(=O)N2[C@@H](CO)[C@@H](c3ccc(C#CC(C)C)cc3)[C@@H]2C1 | 12 | 5
C[C@H]1CN([C@@H](C)CO)C(=O)c2cc(C#CC3CC3)cnc2O[C@@H]1CN(C)C(=O)c1ccc(F)cc1 | 7 | 9
COCCNC(=O)C[C@H]1C[C@@H]2c3cc(NC(=O)C4CCC4)ccc3O[C@@H]2[C@@H](CO)O1 | 8 | 3
CCCNC(=O)N1CC(=O)N2[C@H](CO)[C@@H](c3ccc(C#Cc4cccc(OC)c4)cc3)[C@@H]2C1 | u | x
COc1ccc(NC(=O)Nc2ccc3c(c2)C(=O)N([C@@H](C)CO)C[C@@H](C)[C@H](CN(C)S(=O)(=O)c2ccc(OC)cc2)O3)cc1 | -11 | -2
CN1c2ccc(-c3ccc(C#N)cc3)cc2[C@@H]2[C@@H](CCN2S(=O)(=O)c2cccc(F)c2)[C@H]1CO | u | x
O=S(=O)(Cc1ccccc1)NCC[C@H]1CC[C@@H](NS(=O)(=O)c2ccccc2)[C@H](CO)O1 | 11 | 2
N#C[C@H]1[C@@H](c2ccc(-c3ccccc3)cc2)[C@@H](CO)N1S(=O)(=O)Cc1ccccc1 | u | x
C[C@H]1CN([C@@H](C)CO)C(=O)CCCn2nncc2CO[C@@H]1CN(C)C(=O)CCC(F)(F)F | 3 | -1
CC(C)NC(=O)Nc1ccc2c(c1)C(=O)N([C@H](C)CO)C[C@H](C)[C@H](CN(C)Cc1ccccc1)OCCCC[C@@H](C)O2 | -4 | 9
Cc1noc(C)c1NC(=O)N[C@@H]1CC[C@@H](CCNC(=O)C2CCCCC2)O[C@H]1CO | 4 | 3
O=C(C[C@H]1C=C[C@@H](NC(=O)C2CC2)[C@H](CO)O1)NCc1ccncc1 | 7 | 6
C[C@H]1CN([C@@H](C)CO)C(=O)c2cc(NC(=O)Cn3cnnn3)ccc2O[C@@H]1CN(C)C(=O)NC1CCCCC1 | 9 | 3
CNC[C@@H]1Oc2ncc(-c3ccccc3C)cc2C(=O)N([C@H](C)CO)C[C@@H]1C | -17 | -18
CCCN1[C@@H]2Cn3c(cccc3=O)[C@H]1[C@@H](C(=O)N[C@H](C)c1ccccc1)[C@@H]2CO | 8 | 5
C[C@H](CO)N1C[C@H](C)[C@@H](CN(C)Cc2cccc(F)c2)Oc2cc(C#CC3CC3)ccc2S1(=O)=O | u | x
Cc1noc(C)c1NC(=O)Nc1cccc2c1O[C@H](CN(C)Cc1ccc(C(=O)O)cc1)[C@@H](C)CN([C@H](C)CO)C2=O | 1 | 6
COc1ccc(C#Cc2cccc(-c3nc(C(=O)N[C@@H]4CCN(Cc5ccccc5)C4)cc4c3[C@@H](CCO)N(S(=O)C(C)(C)C)C4)c2)cc1OC (stereo partly drawn) | -4 | 12
C[C@@H]1CN([C@@H](C)CO)C(=O)c2ccccc2-c2ccccc2CO[C@@H]1CN(C)S(=O)(=O)c1ccccc1 | 13 | 10
CCOC(=O)[C@@H]1[C@@H]2NC(=S)N[C@@]1(C)Oc1ccccc12 | -17 | -11

One compound at a time, from the list above. Values in the order: Vaccinia inh	Vaccinia inh Venus
`CCC(=O)N1CC(=O)N2[C@@H](CO)[C@@H](c3ccc(C#CC(C)C)cc3)[C@@H]2C1` is entered as 12	5
`CCOC(=O)[C@@H]1[C@@H]2NC(=S)N[C@@]1(C)Oc1ccccc12` is entered as -17	-11
`CCCNC(=O)N1CC(=O)N2[C@H](CO)[C@@H](c3ccc(C#Cc4cccc(OC)c4)cc3)[C@@H]2C1` is entered as u	x

Returning to the listing, starting 4 compounds before the break.
SMILES | Vaccinia inh | Vaccinia inh Venus
Cc1noc(C)c1NC(=O)Nc1cccc2c1O[C@H](CN(C)Cc1ccc(C(=O)O)cc1)[C@@H](C)CN([C@H](C)CO)C2=O | 1 | 6
COc1ccc(C#Cc2cccc(-c3nc(C(=O)N[C@@H]4CCN(Cc5ccccc5)C4)cc4c3[C@@H](CCO)N(S(=O)C(C)(C)C)C4)c2)cc1OC (stereo partly drawn) | -4 | 12
C[C@@H]1CN([C@@H](C)CO)C(=O)c2ccccc2-c2ccccc2CO[C@@H]1CN(C)S(=O)(=O)c1ccccc1 | 13 | 10
CCOC(=O)[C@@H]1[C@@H]2NC(=S)N[C@@]1(C)Oc1ccccc12 | -17 | -11
COc1ccc2c3c([nH]c2c1)[C@@H](CO)N(C(=O)C1CCC1)CC31CN(S(C)(=O)=O)C1 | -1 | 1
C[C@H](CO)N1C[C@H](C)[C@H](CN(C)Cc2ccc(C(=O)Nc3ccccc3N)cc2)Oc2ccc(NC(=O)Cc3ccccc3)cc2CC1=O | -4 | -7
COCC(=O)Nc1ccc2c(c1)C(=O)N(C)C[C@@H](OC)[C@H](C)CN(C(=O)Cc1ccccn1)[C@H](C)CO2 | 14 | 11
CCCNC(=O)N1CC2(C1)[C@@H](c1ccccc1)[C@H](CO)N2C(=O)C1CCC1 | 3 | 5
O=C([C@H]1[C@H](CO)[C@H]2Cn3c(cccc3=O)[C@H]2N1C(=O)CC1CC1)N1CCCCC1 | -1 | -1
COc1ccc(-c2ccc([C@H]3[C@@H](CO)N4CCCCN(C(=O)Cc5ccncc5)C[C@H]34)cc2)cc1 | -22 | -12
COc1ccc(CN2CC3(CN(C(=O)Cc4ccccc4)C3)c3c([nH]c4cc(OC)ccc34)[C@H]2CO)cc1 | 13 | 20
CO[C@H](CN(C)CC1CCOCC1)[C@H](C)CN(C(=O)Nc1ccc(F)cc1)[C@H](C)CO | 16 | 19
Cn1cnc(S(=O)(=O)NC[C@@H]2CC[C@@H]3[C@@H](CN3Cc3nccs3)O2)c1 | 1 | 2
COc1ccc(CNC(=O)C[C@H]2C[C@@H]3c4cc(NC(=O)C5CCC5)ccc4O[C@@H]3[C@@H](CO)O2)cc1 | -1 | 10
C[C@@H]1CCCCO[C@H](CN(C)C(=O)CCC(F)(F)F)[C@@H](C)CN([C@@H](C)CO)C(=O)c2cc(NC(=O)Cc3ccccc3)ccc2O1 | -16 | -9
C/C=C/c1ccc([C@H]2[C@@H](CO)N3CCCCN(S(=O)(=O)c4cccs4)C[C@@H]23)cc1 | -27 | -26
N#C[C@H]1N[C@@H](CO)[C@H]1c1ccccc1 | 19 | 20
N#C[C@@H]1[C@@H](c2ccc(C3=CCCCC3)cc2)[C@H](CO)N1C(=O)C1CCOCC1 | 1 | 10
COCC(=O)N1C[C@H]2[C@@H](c3ccccc31)[C@H](CO)N2C(=O)C1CC1 | -3 | 6
C[C@H](CO)N1C[C@H](C)[C@H](CN(C)C(=O)C2CC2)Oc2ncc(-c3ccccc3F)cc2C1=O | 2 | 4
CC(C)NC(=O)Nc1cccc2c1O[C@@H](CN(C)S(=O)(=O)c1cn(C)cn1)[C@@H](C)CN([C@@H](C)CO)C2=O | 12 | 0
O=C1N[C@H](c2ccccc2)COCc2cn(nn2)CC[C@H]1Cc1ccccc1 | 11 | 7
CO[C@@H]1CN(C)C(=O)c2cc(NS(=O)(=O)c3ccc(C)cc3)ccc2OC[C@@H](C)N(Cc2ccccn2)C[C@H]1C | -6 | -10
C[C@H]1CN([C@@H](C)CO)C(=O)Cc2cc(NC(=O)CCCN(C)C)ccc2O[C@H]1CN(C)S(=O)(=O)c1ccc(Cl)cc1 | 1 | 2
C[C@H]1CN([C@@H](C)CO)C(=O)c2cccc(NC(=O)Nc3cccc4ccccc34)c2O[C@H]1CN(C)C(=O)Nc1ccc2c(c1)OCO2 | -11 | -5
CCN1CC(=O)N2[C@H](C1)[C@H](c1ccc(-c3ccccc3F)cc1)[C@@H]2CO | 18 | 6
Cc1cccc(S(=O)(=O)N2CCCCN3[C@@H](CO)[C@@H](c4ccc(C#CC(C)C)cc4)[C@@H]3C2)c1 | 2 | -11
Cc1ccccc1S(=O)(=O)N(C)C[C@@H]1OCc2ccccc2-c2c(n(C)c3ccccc23)C(=O)N([C@@H](C)CO)C[C@H]1C | u | x
CC(C)C#Cc1ccc([C@@H]2[C@@H](CO)N3CCCCN(C(=O)NC(C)C)C[C@@H]23)cc1 | -3 | -19

Further results:
SMILES | Vaccinia inh | Vaccinia inh Venus
Cc1ccc(S(=O)(=O)N2C[C@@H](O)COC[C@H]3O[C@H](CC(=O)NCC4CCCCC4)CC[C@@H]32)cc1 | -8 | -5
COc1ccc(-c2ccc3n(c2=O)C[C@H]2[C@H](CO)[C@@H](C(=O)NCC4CC4)[C@@H]3N2S(C)(=O)=O)cc1 | 11 | 5
CCCNC(=O)N1[C@H](CO)[C@@H](c2ccccc2-c2ccc(F)cc2)[C@@H]1C#N | -17 | -10
O=C(C[C@H]1CC[C@H]2[C@@H](COC[C@@H](O)CN2C(=O)c2ccccc2)O1)Nc1ccc(-c2ccccc2)cc1 | u | x
COc1ccccc1C#Cc1ccc([C@H]2[C@@H](C#N)N(C(=O)C3CCC3)[C@H]2CO)cc1 | -20 | -19
C[C@@H]1CN([C@@H](C)CO)C(=O)CCCn2cc(nn2)CO[C@H]1CN(C)S(=O)(=O)c1cccc(C#N)c1 | 16 | 5
C/C=C/c1ccc2c(c1)O[C@H](CN(C)C(=O)NC1CCCCC1)[C@@H](C)CN([C@H](C)CO)S2(=O)=O | 5 | -4
C[C@@H]1CN([C@@H](C)CO)C(=O)c2cccc(NC(=O)C3CC3)c2O[C@H]1CN(C)Cc1ccncc1 | 18 | 3
CC(C)NC(=O)N[C@@H]1C=C[C@H](CC(=O)NCCCN(C)C)O[C@H]1CO | -4 | -2
CO[C@H]1CN(C)C(=O)c2ccc(NS(C)(=O)=O)cc2OC[C@H](C)N(Cc2ccccc2)C[C@H]1C | -4 | -2
C[C@@H]1CCCCO[C@@H](CN(C)Cc2ccccc2)[C@@H](C)CN([C@H](C)CO)C(=O)c2cc(NC(=O)Nc3ccccc3)ccc2O1 | -14 | -11
CCCNC(=O)N1CCC2(CC1)CN(S(C)(=O)=O)[C@@H](CO)c1c2c2ccc(OC)cc2n1C | 9 | -3
CCCNC(=O)N[C@@H]1CC[C@@H](CCn2cc(C3CCCC3)nn2)O[C@@H]1CO | 7 | 11
CO[C@@H](CN(C)C(=O)Nc1ccc(Cl)cc1)[C@@H](C)CN(Cc1ccccc1Cl)[C@H](C)CO | -29 | -17
COc1ccc(CN(C)C[C@@H]2OCCCC[C@@H](C)Oc3ccc(NC(=O)Nc4cccc5ccccc45)cc3C(=O)N([C@H](C)CO)C[C@@H]2C)cc1 | 7 | 3
CCCNC(=O)N1[C@H](CO)[C@@H](c2ccccc2)C12CN(C(=O)CC)C2 | 7 | 11
C[C@@H]1CN([C@@H](C)CO)C(=O)Cc2cc(NC(=O)CCN3CCOCC3)ccc2O[C@H]1CN(C)C(=O)Nc1ccccc1 | 33 | 14
C[C@H](CO)N1C[C@H](C)[C@@H](CN(C)S(=O)(=O)c2cn(C)cn2)Oc2ccc(NC(=O)Cc3ccccc3)cc2C1=O | 6 | 4
Cc1ccc(-c2ccc3c(c2)O[C@H](CN(C)C(=O)C2CCC2)[C@H](C)CN([C@@H](C)CO)S3(=O)=O)cc1 | -27 | -24
Cc1noc(C)c1S(=O)(=O)Nc1ccc2c(c1)CC(=O)N([C@@H](C)CO)C[C@H](C)[C@H](CN(C)Cc1ccc(C(=O)O)cc1)O2 | 12 | 21
O=C(C1CCC1)N1CC2(C1)[C@@H](c1ccccc1)[C@@H](CO)N2C(=O)CC1CC1 | 8 | 6
CC(C)c1cn(CC[C@@H]2CC[C@H](NC(=O)C3CCCCC3)[C@H](CO)O2)nn1 | -3 | 5
C[C@@H]1CN([C@H](C)CO)C(=O)c2cccc(NC(=O)Nc3cccc4ccccc34)c2O[C@@H]1CN(C)Cc1ccc(C(=O)O)cc1 | 14 | 11
O=C(N[C@H]1CC[C@H](CCNS(=O)(=O)c2ccc(F)cc2)O[C@@H]1CO)c1cccnc1 | -6 | -8
C/C=C/c1cnc2c(c1)C(=O)N([C@H](C)CO)C[C@H](C)[C@@H](CN(C)S(=O)(=O)c1ccccc1F)O2 | -6 | -2
N#C[C@H]1N[C@H](CO)[C@H]1c1ccc(-c2cccc(F)c2)cc1 | -14 | -11
COc1cccc(NC(=O)N2CC(=O)N3[C@H](C2)[C@@H](c2ccc(C4=CCCC4)cc2)[C@@H]3CO)c1 | -9 | -9
CCCNC(=O)N1CC2(C1)[C@@H](c1ccccc1)[C@@H](CO)N2Cc1ccccn1 | -2 | 3
C[C@@H]1CCCCO[C@@H](CN(C)CC2CC2)[C@@H](C)CN([C@H](C)CO)C(=O)c2cc(NS(C)(=O)=O)ccc2O1 | 29 | 15
COc1ccc(S(=O)(=O)N[C@@H]2CC[C@@H](CC(=O)NCc3ccccc3F)O[C@H]2CO)cc1 | 2 | 6
